Assay outcomes as filed in PubChem.
Sfp inh = inhibitors of Bacillus subtilis Sfp phosphopantetheinyl transferase. actives 3.5% (n = 310,000). Biochemical Sfp PPTase activity, qHTS. Q9F4F7. Potency, µM, inactives show max response, negative = inhibition, actives largely listed as inhibitors; active = well fitted inhibition curve with a large enough effect; inconclusive = small, poorly fitted or top-dose-only effect, or another doubt; inactive = no such curve, though single readings can be large or run the other way;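 note: the enzyme is Sfp with the accession as filed and its product quenches rhodamine fluorescence; potency is the fitted concentration of half-maximal effect; 0% = enzyme reaction without inhibitor and -100% = no enzyme wells; top concentration of the series not given in the record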
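Fluorescence-quenching assay: 15 nM Sfp-PPTase preincubated 15 min at room temperature with compound, then 5 uM rhodamine-CoA and 12.5 uM BHQ-2-labelled YbbR peptide added. Fluorescence (ex 525/em 598 nm) read at start and after 30 min; difference gives rate.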
TRPV1 potentiator = human TRPV1 potentiation; actives 0.02% (n = 320,000); TRPV1-expressing cells, Fluo-8 calcium influx, capsaicin EC20 potentiation; host cell line not named in the record; control for the full effect not named in the record; potentiation, % at 8.33 µM; active means potentiation above 80%; inconclusive means 30% to 80%; inactive means below 30%; note: 0% is about no effect
Target sequence (Q8NER1 whole entry, looked up): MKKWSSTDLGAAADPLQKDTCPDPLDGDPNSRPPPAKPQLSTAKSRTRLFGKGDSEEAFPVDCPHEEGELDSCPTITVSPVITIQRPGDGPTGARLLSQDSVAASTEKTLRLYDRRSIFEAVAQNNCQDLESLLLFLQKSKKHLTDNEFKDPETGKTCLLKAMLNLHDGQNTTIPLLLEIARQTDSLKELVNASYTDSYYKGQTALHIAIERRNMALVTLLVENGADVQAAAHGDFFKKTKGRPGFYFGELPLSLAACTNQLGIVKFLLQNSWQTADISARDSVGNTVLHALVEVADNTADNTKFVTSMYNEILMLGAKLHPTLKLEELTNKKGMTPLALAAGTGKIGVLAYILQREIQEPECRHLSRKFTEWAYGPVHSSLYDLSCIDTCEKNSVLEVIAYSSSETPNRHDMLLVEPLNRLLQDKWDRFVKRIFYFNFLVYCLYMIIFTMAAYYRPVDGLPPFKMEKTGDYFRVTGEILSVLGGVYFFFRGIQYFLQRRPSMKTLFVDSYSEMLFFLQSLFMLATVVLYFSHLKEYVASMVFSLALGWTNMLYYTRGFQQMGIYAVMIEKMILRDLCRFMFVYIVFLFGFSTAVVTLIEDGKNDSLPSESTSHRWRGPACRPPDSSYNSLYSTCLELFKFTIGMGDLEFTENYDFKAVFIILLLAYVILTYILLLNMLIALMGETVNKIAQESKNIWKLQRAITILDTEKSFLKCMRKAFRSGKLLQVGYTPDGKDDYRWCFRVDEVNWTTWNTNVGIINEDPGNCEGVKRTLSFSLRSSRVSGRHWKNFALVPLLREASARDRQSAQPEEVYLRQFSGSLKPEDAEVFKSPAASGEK
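TRPV1-expressing cells were cultured overnight at 35.5C and loaded with Fluo-8 calcium dye for 40 to 90 min at room temperature. After a 10 s baseline, compound was added and calcium influx was read kinetically for 3 min (ex 480/em 520 nm).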
PINK1 modulator = modulators of PINK1 expression. PINK1 immunofluorescence, high-content cytometry, 24 h. Potency, µM (series often up to 76.6 µM), for inactives: at the highest dose activation (PINK1 increase), hits mostly activators. actives 0.2% (n = 410,000). AID 624263; active = well fitted activation curve with a large enough effect; inconclusive = small, poorly fitted or top-dose-only effect; inactive = flat fitted curve, though single readings scatter; cell line not stated here;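 note: potency is the fitted concentration of half-maximal effect; % of control where 0% means no effect; nearly all actives have a fitted effect of over 65% in size; a mitochondrial uncoupler was the plate control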
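Fluorescence from anti-PINK1 antibody, together with nuclear and cell stains, was scanned on a laser-scanning cytometer. Before staining, stable-line cells were incubated 24 hours with compounds at 5 concentrations; primary antibody 12 h at 10 degrees C.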
ClpP mod = qHTS Assay for Activators of ClpP; ATP-dependent Clp protease proteolytic subunit (Bacillus subtilis (strain 168)), P80244; purified B. subtilis ClpP, FRET peptide cleavage, 20 min; Potency, µM (series often up to 57.5 µM), for inactives: at the highest dose activity change, negative = active; actives 1.9% (n = 340,000); AID 651965, 2013; active = well fitted falling curve with a large enough effect; inconclusive = small, poorly fitted or top-dose-only effect; inactive = no such curve, though single readings can be large or run the other way; note: potency is the fitted concentration of half-maximal effect; the source files actives as falling curves though it sought activators and does not explain the sign; nearly all actives have a fitted effect of over 65% in size; many hits overshoot -100%
Target sequence (P80244 whole entry, looked up): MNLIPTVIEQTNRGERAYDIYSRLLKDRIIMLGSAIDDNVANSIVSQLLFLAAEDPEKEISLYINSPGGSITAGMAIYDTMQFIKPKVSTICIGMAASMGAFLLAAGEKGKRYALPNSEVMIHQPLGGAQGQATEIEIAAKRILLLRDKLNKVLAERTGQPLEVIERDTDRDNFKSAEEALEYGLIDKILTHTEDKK
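FRET quenching reversal measured ClpP activation: 10 microg/mL B. subtilis ClpP at pH 8 with the FRET-FV decapeptide, read at 430 nm after 320 nm excitation. The 20-min minus 0-min signal was scaled between DMSO/no-enzyme wells and ADEP (5.8 microM final).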
TRPML1 ag = agonists of human TRPML1 channel; TRPML1-expressing cells, Ca2+ dye fluorescence, FDSS; host cell line not named in the record; reference of the full effect not given here; activation, % (no concentration beside the values); actives 0.12% (n = 410,000); in the data active = activation above about 50%; inconclusive = about 30% to 50%; inactive = below about 30%; note: 0% is about no effect; the text of the record puts the active cut at 80%
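In this qHTS format, compounds were pin-transferred onto Ca8-dye-loaded TRPML1-DL cells induced with Tet overnight, and intracellular Ca2+ fluorescence was recorded kinetically for 110 s after a 10 s baseline. A subsequent 4uM final 54-4 (EC80) addition followed by a second 110 s read served as the antagonist phase.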
TRPML1 inh = human mucolipin-1 channel inhibition; Q9GZU1; TRPML1-inducible cells, Ca2+ dye fluorescence, FDSS; stronger effect = lower value; inhibition of EC80 agonist-evoked calcium signal; activity change, negative = inhibition, % (no concentration beside the values); actives 0.02% (n = 390,000); in the data active means activity change below about -50%; inconclusive means about -30% to -50%; inactive means above about -30%;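 note: stimulus is agonist 54-4 at its EC80 concentration; % is set by controls: 0 for no effect and ±100 for the full control effect; compound concentration not given in the record; the text of the record puts the active cut at -80%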
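Tet-induced TRPML1-DL cells loaded with Ca8 no-wash calcium dye were read kinetically on FDSS. Compound addition was followed by EC80 agonist 54-4 (4 uM final); inhibition was read over 110 s.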
Menin MLL FP FL = menin-MLL binding inhibition, fluorescein peptide; Fluorescence polarization, fluorescein-MLL peptide displacement from menin; FP activity change, % at 61.4 µM; 290,000 tested, under 10 active; inconclusive = falling polarisation curve, or a change in total fluorescence; inactive = total fluorescence flat and polarisation flat or rising; no compound was filed as active; the % refers to the polarisation; negative = inhibition;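 note: % of control where 0% means no effect; inhibitors lower the polarisation; unlabelled MLL peptide was the positive control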
Numbers without * were called inactive; u = inconclusive; x = not tested or not shown; [ ] = another dose, or the depositor's remark.

Each structure is followed by: Sfp inh	TRPV1 potentiator	PINK1 modulator	ClpP mod	TRPML1 ag	TRPML1 inh	Menin MLL FP FL
#1 CCOC(=O)C(C)Sc1nc(-c2ccccc2)nc2ccc(F)cc12 (configuration not stated)
→ -8%	0	4.9%	-22%	0.7	-19	-1.1
#2 Cc1c(C)c2ccc(OCC(=O)NCCN3CCOCC3)cc2oc1=O
→ 5%	8	-0.8%	3.8%	2.7	3	x
#3 CCCn1cc(S(=O)(=O)c2cccc(Cl)c2)c(=O)c2cc(F)c(N3CCN(CC)CC3)cc21
→ x	x	12%	-29%	1.5	-3	x
#4 O=C(c1cnccn1)N1CCC2(CC1)CCN(c1cccc(-c3ccccc3)c1)CC2
→ -8%	x	-1.2%	x	x	x	-0.5
#5 CC(CNC(=O)COc1ccccc1)OC(=O)Nc1cccc(Cl)c1 (configuration not stated)
→ u	2	0.4%	x	1.7	0	4.9
#6 CCOc1cc(/C=C2/NC(=O)N(CC(=O)OC)C2=O)ccc1OC
→ 22%	0	6.1%	0.2%	1.0	36	-0.7
#7 O=C(O)CCS(=O)(=O)Cc1ccccc1Cl
→ 15%	2	x	1.8%	0.7	3	2.8
#8 O=C(O)CSc1nnc(Cc2cccc3ccccc23)n1-c1cc(C(F)(F)F)cc(C(F)(F)F)c1
→ 24%	-13	-0.2%	-0.3%	4.6	-6	2.3
#9 OCCCc1nc2n(n1)C(c1cccc(Cl)c1)C=C(c1ccccc1)N2 (configuration not stated)
→ x	x	-0.1%	4.2%	-0.5	6	x
#10 CC(C)c1nnc(-c2ccc(Cl)cc2)c(N(C)C)n1
→ 12%	-1	-1.0%	0.7%	-0.8	0	-0.7
#11 S=C1NCCc2ccccc2C1c1ccccc1 (configuration not stated)
→ -20%	15	0.3%	-1.8%	0.3	4	3.9
#12 Cc1cc(OCC(=O)N2CCOCC2)cc2oc(=O)c3ccccc3c12
→ -13%	-16	-0.5%	7.1µM*	-0.7	-3	5.5
#13 COc1cccc(CN(C)Cc2c(O)ccc3ccccc23)c1
→ -3%	7	-0.7%	x	0.6	-4	-1.6
#14 Cc1csc2c(=O)sc(NC(=O)c3ccc(F)cc3)nc12
→ 0%	1	2.6%	x	-0.1	2	2.6
#15 CC(O)(c1cccc(F)c1)c1nc(-c2ccoc2)cs1 (configuration not stated)
→ x	x	1.3%	-4.8%	0.0	x	x
#16 O=C(CSc1cn[nH]n1)Nc1cccc(C(F)(F)F)c1
→ 25%	-19	3.3%	x	1.2	23	2.5
#17 C=C(C)CSc1nnc(-c2ccc(OC)cc2)n1N
→ -1%	-5	3.5%	-5.1%	-0.4	2	4.1
#18 CCCCOc1ccc(CN(CCO)CCO)cc1[N+](=O)[O-]
→ 6%	-2	3.5%	-1.8%	0.8	-7	5.1
#19 CC(=O)NCCNC(=O)C1Cc2c(-c3cccc(NC(C)=O)c3)ccnc2O1 (configuration not stated)
→ x	x	1.7%	-21%	-0.2	x	x
#20 Cc1cc(C)nc(Sc2ncnc3c2oc2ccccc23)n1
→ 6%	8	-3.4%	-7.3%	-1.3	21	0.9
#21 CC(CC(=O)Nc1ccc(F)cc1)S(=O)(=O)c1ccc2c(c1)NC(=O)CO2 (configuration not stated)
→ 20%	8	-1.1%	6.9%	0.7	20	-3.0
#22 O=C(COC(=O)c1c(Cl)cccc1Cl)NC1CCCCC1
→ 11%	-17	0.7%	x	2.6	-13	-0.3
#23 CCNC(=O)CN(c1ccc(CC)cc1)S(C)(=O)=O
→ 10%	3	-0.6%	-0.1%	-0.2	18	0.0
#24 CC1=Nc2cc(C(=O)NCc3ccco3)ccc2Sc2ccc(C)cc21
→ -10%	-16	13%	0.8%	2.5	-17	9.5
#25 O=C(C[n+]1cc(-c2ccccc2)n2c1CCC2)OCc1ccccc1
→ 4%	u	-0.1%	-3.2%	2.3	12	-0.3
#26 Cc1c(C(=O)N(Cc2ccc(Cl)cc2)CC2CCCO2)oc2ccc(F)cc12 (configuration not stated)
→ x	x	1.6%	-0.4%	1.0	-7	x
#27 CCCCN(CC)CCCNC(=O)c1cc2cc3ccc(C)cc3nc2o1
→ 0%	14	3.5%	x	0.4	2	2.0
#28 CCOC(=O)C1=C(C)NC2=C(C(=O)CCC2)C1c1cc(OC)ccc1OC (configuration not stated)
→ -4%	27	4.3%[38.3 µM]	-6.6%	0.3	1	0.6
#29 Cc1ccc(OCC(=O)N/N=C/c2c[nH]c3ccccc23)c([N+](=O)[O-])c1
→ 22%	-1	4.3%	0.9%	-0.3	28	3.3
#30 Cc1noc(C)c1NC(=O)N(C)C[C@@H]1Oc2ncc(Br)cc2C(=O)N([C@H](C)CO)C[C@@H]1C
→ x	x	0.9%	0.6%	-0.2	-3	x
#31 Cc1ccc(NC(=O)C2CCN(C(=O)c3ccccc3C)CC2)nc1
→ x	1	1.3%	-1.4%	-0.8	-11	x
#32 Cc1ccc(NC(=O)C2(c3ccccc3)CCOCC2)cc1
→ 21%	-4	-0.8%	x	0.8	5	3.2
#33 CC(C)Nc1nc(NCCOc2ccccc2Cl)c2sc(-c3ccccc3)cc2n1
→ x	x	u	25µM*	-0.9	x	x
#34 Cn1c2ccccc2c2cnn(CC(=O)Nc3ccc(F)cc3F)c(=O)c21
→ 0%	0	0.9%	-19%	x	x	4.8
#35 O=C1CCc2cc(S(=O)(=O)NC3CCCCC3)ccc2N1
→ x	-6	0.1%	1.9%	-0.6	-5	x
#36 Cc1ccc(OCC(=O)c2ccc(Cl)s2)c([N+](=O)[O-])n1
→ 20µM*	13	0.6%	0.9%	-1.2	-11	u
#37 CCNC(=O)COC(=O)c1cc(-c2ccc(OC)cc2)nc2ccccc12
→ -6%	5	u	-28%	0.7	3	0.9
#38 COc1ccc(CNC(=O)N2CCc3ccccc3C2)cc1Cl
→ -6%	-14	0.1%	x	1.5	-2	3.6
#39 C#CCn1c(=NC(=O)CSCC(=O)N2CCOCC2)sc2ccccc21
→ 8%	5	3.2%	-3.0%	-0.8	3	0.9
#40 O=C(CC1SC(N2CCCCC2)=NC1=O)Nc1ccc(C(=O)NCCc2ccc(F)cc2)cc1 (configuration not stated)
→ x	7	0.6%	-4.3%	1.0	-14	x
#41 Cc1cnc(NC(=O)CSc2ccccc2)s1
→ -13%	-3	-0.4%[38.3 µM]	1.3%	3.5	-4	0.0
#42 CS(=O)(=O)N(CCc1ccccc1)CC(=O)NCc1ccc(Cl)cc1
→ 12%	4	-0.3%	x	-0.2	23	0.3
#43 COC(=O)C(CC(=O)c1ccc(Cl)cc1)c1ccc(C(C)C)cc1 (configuration not stated)
→ -12%	-11	22%	0.3%	0.7	15	0.9
#44 CCOc1ccc(S(=O)(=O)N2CCCCC2)c(C)c1C
→ -5%	-1	4.6%	1.0%	0.4	-5	2.1
#45 O=C(CN1CCN(c2ccccc2O)CC1)Nc1ccnn1C1CCCC1
→ x	-1	-1.0%	-1.5%	0.1	-5	x
#46 CCOC(=O)C1=C(C)NC(=O)/C1=C\N(C)C
→ 5%	4	1.2%	x	0.1	17	u
#47 COC(=O)c1ccccc1SC1CC(=O)N(c2cccc(C)c2)C1=O (configuration not stated)
→ -19%	3	9.9%	x	-1.1	1	1.1
#48 COc1ccccc1C(=O)N/C(=C\c1ccc(Br)cc1)C(=O)NCCO
→ 10%	25	-0.3%	-0.3%	-0.3	10	4.2
#49 Cc1ccc(-c2csc(NC(=O)CCNC(=O)c3ccccc3Cl)n2)cc1
→ 3%	29	0.5%	0.4%	0.8	15	6.9
#50 Cc1nc(NC(=O)c2ccco2)sc1C(=O)Nc1ccc(Br)cc1
→ 4%	17	0.2%[38.3 µM]	-4.7%	-0.4	16	-0.1
#51 CCOc1ccc(NC(=O)c2sc3nc(N4CCOCC4)c4c(c3c2N)CCCC4)cc1
→ -4%	11	6.7%	u	0.5	-10	x
#52 O=[N+]([O-])c1cccc(Cl)c1NCCNS(=O)(=O)c1ccccc1
→ 7%	2	-0.4%	1.2%	-0.4	19	1.4
#53 Cc1ccc(C)c(NC(=O)CSc2nc(C)cc(C)c2C#N)c1
→ -1%	22	9.1%[38.3 µM]	-5.2%	0.6	4	1.9
#54 OC(COc1ccccc1)CN1CCCCCC1 (configuration not stated)
→ 12%	3	0.1%	x	-0.4	-2	-1.0
#55 COc1ccc(-c2noc(CN(C)C(=O)CCN3C(=O)[C@H]4CC=CC[C@H]4C3=O)n2)cc1
→ 4%	29	0.8%	-3.8%	0.3	1	x
#56 Cc1cccc(CSCC(=O)NCc2ccc(S(N)(=O)=O)cc2)c1
→ 3%	-9	1.3%	-0.2%	-0.3	-20	2.4
#57 Cc1cc(=O)oc2c(C)c(OCC(=O)NCC3CCC(C(=O)O)CC3)ccc12 (configuration not stated)
→ 7%	5	0.8%	4.8%	x	x	-9.7
#58 CC(=O)c1cccc(N(CC(=O)Nc2ccc(F)cc2)S(C)(=O)=O)c1
→ -6%	-14	3.8%	-0.9%	1.0	-18	5.4
#59 CCNC(=O)C1(C)CCCN(C(=O)c2ccc3ccccc3n2)C1 (configuration not stated)
→ x	x	1.2%	-1.0%	-0.3	-3	x
#60 CCC(CC)=N/N=C/c1c(O)n(CC)c2cc(C3=NNC(=O)CC3)ccc12
→ u	-16	8.9%	-5.3%	-0.1	-5	u

Later entries.
Each structure is followed by: Sfp inh	TRPV1 potentiator	PINK1 modulator	ClpP mod	TRPML1 ag	TRPML1 inh	Menin MLL FP FL
#61 O=C(c1ccc(Cn2ccc([N+](=O)[O-])n2)cc1)N1CCN(Cc2ccccc2)CC1
→ 4%	1	0.0%	-0.9%	-0.5	-13	-4.7
#62 Cc1ccc(S(=O)(=O)Cn2nnnc2C(CC(C)C)N2CCN(C(=O)c3ccco3)CC2)cc1 (configuration not stated)
→ -1%	-5	-1.0%	-2.6%	-0.5	15	2.6
#63 Cc1ccc(NC(=O)CSc2nn(-c3ccc(Cl)cc3)c(=S)s2)cc1S(=O)(=O)N(C)C
→ u	23	0.8%	1.3%	1.5	-9	3.0
#64 CCN1CCc2c(OCC(=O)Nc3cccc(C)c3)cccc2C1=O
→ 5%	12	1.6%	x	-0.6	2	-3.6
#65 COc1ccc(CCNC(=O)CC2SC(=NCCC(C)C)NC2=O)cc1OC (configuration not stated)
→ 11%	9	0.2%	-3.5%	-0.9	-13	2.4
#66 Nc1cccc2c(O)cc(S(=O)(=O)O)cc12
→ x	x	0.5%	x	2.2	-13	x
#67 N#CC1(NC(=O)COC(=O)Cn2[nH]c(=O)c3ccccc3c2=O)CCCCC1
→ x	5	-0.2%	-11%	-0.4	13	x
